Screening data from PubChem BioAssay.
gsp ag – qHTS for Agonist of gsp, the Etiologic Mutation Responsible for Fibrous Dysplasia/McCune-Albright Syndrome: qHTS. gsp mutant cells, cAMP HTRF, 30 min; control for the full effect not named in the record. AID 624287, 2012. Potency, µM (doses to about 76.9 µM), inactives show at the highest dose activation (cAMP increase), usual class: activators. actives 0.13% (n = 340,000); active = well fitted activation curve with a large enough effect; inconclusive = small, poorly fitted or top-dose-only effect, or another doubt; inactive = no such curve, though single readings can be large or run the other way; cell line not stated here;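 further: phosphodiesterase inhibitor Ro 20-1724 added with compounds to block cAMP breakdown; potency means the concentration at half of the fitted maximal effect; nearly all actives have a fitted effect of over 60% in size; about a fifth of the inactives were tested at one dose only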
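Cells in DMEM/10% FBS with G418 were pretreated with compounds in DMSO plus […] (300 uM stock) for 30 min at 37C. cAMP was measured by HTRF (cAMP-d2 plus anti-cAMP antibody-K) after 30 min at room temperature.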
TRPV1 PAM – HTS Assay for Compounds that Act as Potentiators of the Vanilloid Receptor 1; potentiation, % at 8.33 µM; Transient receptor potential cation channel subfamily V member 1 (Homo sapiens), Q8NER1; actives 0.02% (n = 320,000); TRPV1-expressing cells, Fluo-8 calcium influx, capsaicin EC20 potentiation; host cell line not named in the record; control for the full effect not named in the record; active means potentiation above 80%; inconclusive means 30% to 80%; inactive means below 30%; further: 0% is about no effect
Target sequence (Q8NER1 whole entry, looked up): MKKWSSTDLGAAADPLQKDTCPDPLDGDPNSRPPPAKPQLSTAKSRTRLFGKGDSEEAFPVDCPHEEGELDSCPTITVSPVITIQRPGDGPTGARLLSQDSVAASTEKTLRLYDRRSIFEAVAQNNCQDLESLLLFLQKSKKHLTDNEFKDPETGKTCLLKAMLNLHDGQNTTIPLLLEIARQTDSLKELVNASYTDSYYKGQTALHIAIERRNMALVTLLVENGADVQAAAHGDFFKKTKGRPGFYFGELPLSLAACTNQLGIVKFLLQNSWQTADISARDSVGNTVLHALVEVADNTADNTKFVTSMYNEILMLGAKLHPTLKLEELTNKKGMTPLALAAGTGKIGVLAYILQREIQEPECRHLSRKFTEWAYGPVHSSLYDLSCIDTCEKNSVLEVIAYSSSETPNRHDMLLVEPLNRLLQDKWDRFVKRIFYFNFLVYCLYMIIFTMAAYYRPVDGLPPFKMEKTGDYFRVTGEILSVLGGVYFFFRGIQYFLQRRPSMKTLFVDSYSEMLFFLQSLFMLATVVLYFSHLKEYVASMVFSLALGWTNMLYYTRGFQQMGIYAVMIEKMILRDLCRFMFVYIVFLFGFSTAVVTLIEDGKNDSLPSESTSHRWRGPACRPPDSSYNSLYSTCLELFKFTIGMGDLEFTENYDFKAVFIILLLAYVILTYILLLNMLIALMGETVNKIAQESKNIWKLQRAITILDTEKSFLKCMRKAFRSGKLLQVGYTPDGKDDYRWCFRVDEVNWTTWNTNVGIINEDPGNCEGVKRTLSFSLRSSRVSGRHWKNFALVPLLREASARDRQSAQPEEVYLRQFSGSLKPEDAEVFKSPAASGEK
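Fluo-8 calcium influx in TRPV1-expressing cells, kinetic read (ex 480/em 520 nm). Compound added and read 3 min for agonist activity, followed by capsaicin at EC20 final and 2 min further read for enhancement.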
Sfp PPTase inh – qHTS Assay for Inhibitors of Bacillus subtilis Sfp phosphopantetheinyl transferase (PPTase); Biochemical Sfp PPTase activity, qHTS; Potency, µM, without a hit: max response, negative = inhibition, most hits filed as inhibitors; actives 3.5% (n = 310,000); AID 1490, 2009; active means well fitted inhibition curve with a large enough effect; inconclusive means small, poorly fitted or top-dose-only effect, or another doubt; inactive means no such curve, though single readings can be large or run the other way;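 further: the enzyme is Sfp with the accession as filed and its product quenches rhodamine fluorescence; potency means the concentration at half of the fitted maximal effect; 0% = enzyme reaction without inhibitor and -100% = no enzyme wells; top concentration of the series not given in the record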
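With Hepes-Na pH 7.6 buffer containing 10 mM MgCl2, Sfp (15 nM) modified BHQ-2-YbbR (12.5 uM) using rhodamine-CoA (5 uM). Two reads 30 minutes apart at 525/598 nm yielded each well's rate.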
gsp antag – qHTS for Antagonists of gsp, the Etiologic Mutation Responsible for Fibrous Dysplasia/McCune-Albright Syndrome: qHTS; AID 624288, 2012; actives 0.4% (n = 340,000); Potency, µM (doses to about 76.9 µM), inactives show at the top dose activity change, negative = inhibition, actives largely listed as inhibitors; gsp-mutant cells, cAMP HTRF, 30 min; control for the full effect not named in the record; active = falling curve of any shape with a large fitted effect; inconclusive = falling curve, mostly with a smaller effect; inactive = flat or rising curve; cell line not stated here;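 further: intracellular cAMP measured with PDE inhibitor Ro 20-1724 present during compound exposure; potency means the concentration at half of the fitted maximal effect; on the % scale 0 is the no-effect control and ±100 the full control effect; nearly all actives have a fitted effect of over 65% in size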
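Cells in G418 medium, seeded 16-24 h, 37C; buffer exchange to DPBS + 1 mM CaCl2, 0.5 mM MgCl2, 0.05% BSA; cpds in DMSO + […] (300 uM stock), 30 min 37C; HTRF cAMP detection.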
TRPML1 inh – qHTS for Inhibitors of the Human Mucolipin Transient Receptor Potential 1 (TRPML1); Mucolipin-1 (Homo sapiens), Q9GZU1; TRPML1-inducible cells, Ca2+ dye fluorescence, FDSS; stronger effect = lower value; inhibition of EC80 agonist-evoked calcium signal; activity change, negative = inhibition, % (concentration not given with the values); actives 0.02% (n = 390,000); in the data active means activity change below about -50%; inconclusive means about -30% to -50%; inactive means above about -30%;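 further: stimulus is agonist 54-4 at its EC80 concentration; on the % scale 0 is the no-effect control and ±100 the full control effect; compound concentration not given in the record; the text of the record puts the active cut at -80%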
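TRPML1-DL cells, Tet-induced overnight (~16 h, 37 °C) at 1,500 cells/well, were loaded with Ca8 no-wash dye plus quencher for 45-90 min at room temperature. Compounds were pinned during FDSS kinetic reading; agonist 54-4 at EC80 (4 uM final) then added.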
Menin-MLL FL inh – qHTS Assay for Inhibitors Targeting the Menin-MLL Interaction in MLL Related Leukemias: Competition With Fluorescein Labeled MLL-derived Peptide; Fluorescence polarization, fluorescein-MLL peptide displacement from menin; FP activity change, % at 61.4 µM; 290,000 tested, under 10 active; AID 1766, 2009; inconclusive = falling polarisation curve, or a change in total fluorescence; inactive = total fluorescence flat and polarisation flat or rising; no compound was filed as active; the % refers to the polarisation; negative = inhibition;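 further: % of control where 0% means no effect; inhibitors lower the polarisation; unlabelled MLL peptide was the positive control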
ClpP mod – qHTS Assay for Activators of ClpP. actives 1.9% (n = 340,000). purified B. subtilis ClpP, FRET peptide cleavage, 20 min. ATP-dependent Clp protease proteolytic subunit (Bacillus subtilis (strain 168)), P80244. Potency, µM (series often up to 57.5 µM), for inactives: top-dose activity change, negative = active; active = well fitted falling curve with a large enough effect; inconclusive = small, poorly fitted or top-dose-only effect; inactive = no such curve, though single readings can be large or run the other way; further: potency means the concentration at half of the fitted maximal effect; the source files actives as falling curves though it sought activators and does not explain the sign; nearly all actives have a fitted effect of over 65% in size; many hits overshoot -100%
Target sequence (P80244 whole entry, looked up): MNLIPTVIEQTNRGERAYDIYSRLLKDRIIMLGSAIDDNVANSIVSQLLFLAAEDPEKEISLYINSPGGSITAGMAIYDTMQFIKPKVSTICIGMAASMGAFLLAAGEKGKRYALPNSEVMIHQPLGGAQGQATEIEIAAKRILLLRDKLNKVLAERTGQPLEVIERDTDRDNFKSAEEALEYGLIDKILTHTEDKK
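Buffer: 100 mM Tris/HCl pH8, 100 mM KCl, 0.05% low protease BSA, 2.5% glycerol, 0.01% Tween-20. ClpP 10 microg/mL final; 20 min RT; delta FRET normalized to ADEP and DMSO controls.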
Numbers without * were called inactive; ? = inconclusive; . = no result given; [ ] = another dose, or the depositor's remark.

Values run as follows: gsp ag	TRPV1 PAM	Sfp PPTase inh	gsp antag	TRPML1 inh	Menin-MLL FL inh	ClpP mod
CCCCNC(=O)COCc1cc(-c2ccc3c(c2)OCO3)on1
→ 0%	15	0%	-16%	34	2.0	.
Cc1cc(C)c2cc(CN(CC3CCCO3)C(=S)NCc3ccco3)c(=O)[nH]c2c1 (stereo not drawn)
→ -7%[15.4 µM]	11	-11%	-19%	17	7.2	.
CC(C)C(O)(C(=O)NNc1ccccc1)C(C)C
→ 9%[15.4 µM]	7	16%	20%	5	-1.1	0.7%
Cc1ccc(CNc2nc(N)c([N+](=O)[O-])c(NCCO)n2)cc1
→ -24%	0	10%	12%	17	0.1	2.5%
O=C1C2C(C(=O)N1/N=C/c1cc([N+](=O)[O-])ccc1O)C1C=CC2C12CC2 (stereo not drawn)
→ -4%	.	1%	-18%	-1	5.4	0.7%
Cc1cc(N2CC(C(=O)Nc3nccs3)CC2=O)ccc1C(C)C (stereo not drawn)
→ -5%	9	5%	0%	18	.	-0.5%
COC(=O)CNC(c1ccccc1Cl)c1cc(Br)ccc1NC(=O)CCN1CCOCC1 (stereo not drawn)
→ -31%[inhibitor]	10	56µM*	3%[15.4 µM]	6	1.1	-1.9%
Cc1oc2ccc(O)cc2c1C(=O)c1ccc(F)cc1
→ -3%	.	.	1%	4	.	-0.3%
Cc1ccccc1C(=O)Nc1ccccc1C(=O)NC1CC1
→ 14%	3	21%	9%	16	.	0.6%
CCCn1c(N)c(N(CCOC)C(=O)/C=C/c2ccc(C(=O)OC)cc2)c(=O)[nH]c1=O
→ -22%	-8	12%	9%	39	3.2	-2.0%
COCCn1cnc2c1c(=O)n(CC(=O)OCC(=O)NCCCc1ccccc1)c(=O)n2Cc1ccccc1
→ -90%[inhibitor]	-20	-9%	-10%	3	0.2	1.4%
COc1ccc(-c2[nH]ncc2CN(CCO)Cc2cccs2)c(F)c1
→ -6%[15.4 µM]	9	19%	9%	-4	-3.6	1.3%
CC1(C)CC(=O)C(C=Nc2ccc(Cl)cn2)=C(O)C1
→ 24%	3	20%	5%	1	4.8	-0.8%
O=C(CSc1nc2[nH]ncc2c(=O)[nH]1)NCc1ccccc1Cl
→ 4%	8	7%	18%	-9	9.0	0.9%
CC(=O)Nc1ccc(/C=N/NC(=O)CNC(=O)c2ccccc2)cc1
→ 6%[15.4 µM]	-3	2%	-5%	-1	-0.3	-0.9%
CC1(C)Cc2c(C#N)c(OCC(=O)c3ccccc3)nc(-c3ccoc3)c2CO1
→ -10%	18	-15%	-3%	-2	12	-5.8%
O=C(Nc1ncn[nH]1)c1cccc(F)c1
→ -8%	8	.	6%	31	.	-0.1%
C[C@@H]1CN([C@H](C)CO)C(=O)CCCn2nncc2CO[C@H]1CN(C)C(=O)Nc1cccc2ccccc12
→ ?	.	.	.	2	.	4.3%
O=C(c1ccc2c(c1)OCO2)C1CCCN(Cc2cn[nH]c2-c2ccccc2)C1 (stereo not drawn)
→ ?	8	3%	0%	13	-7.0	-3.4%
COc1ccc(CC(=O)OCC(=O)Nc2ccc(Br)cc2)cc1
→ ?	-21	8%	3%	2	0.8	-1.0%
COc1ccccc1N(CC(=O)NCc1ccccc1)C(=O)CCC(=O)Nc1ccccn1
→ 0%	9	17%	-6%	-14	1.0	-1.5%
CCOC(=O)Cc1csc(N/C(=N/S(=O)(=O)c2ccc(Cl)cc2)c2ccccc2)n1
→ -26%	29	12%	23%	12	0.1	0.9%
Cc1nc2c(C(=O)NCc3ccc(F)cc3)c[nH]n2c(=O)c1Cl
→ -2%	27	13%	-22%	0	0.8	?
CC(NS(=O)(=O)c1ccc(F)cc1)C(=O)NCc1ccncc1 (stereo not drawn)
→ -17%	1	6%	4%	-2	0.3	-9.8%
C=CCNC(=O)CC(=O)N/N=C/c1ccc(F)cc1
→ -19%	-2	16%	-13%	-3	-2.6	0.6%
Clc1ccc(-c2noc(CCCOc3ccccc3)n2)cc1
→ 13%	7	1%	-6%	-3	1.5	-0.9%
O=C(CN1C(=O)c2ccccc2C1=O)Nc1ccc(S(=O)(=O)NCC2CCCO2)cc1 (stereo not drawn)
→ -21%	-38	-3%	6%	1	4.5	0.5%
CCOC(=O)c1ccc(NC(=O)N2CCN(S(C)(=O)=O)CC2)cc1
→ 1%	-18	7%	11%	4	2.6	1.2%
NC(=O)C1CCN(C(=O)c2ccc(NS(=O)(=O)c3ccc(Br)s3)cc2)CC1
→ 1%	-2	.	6%	5	.	-3.4%
CCOc1cc(/C=C2\SC(=O)N=C2N)ccc1O
→ -23%	-26	-1%	-1%	-3	?	2.2%
Cc1cc(NS(=O)(=O)c2ccc(NC(=O)CCCOc3ccccc3)cc2)no1
→ ?	0	17%	-15%	-3	1.3	-5.0%
Cc1ccc(CN2CCN(c3ccccc3Cl)CC2)o1
→ 10%[15.4 µM]	.	.	8%	10	.	-3.9%
CN1C(=S)SC2CS(=O)(=O)CC21C (stereo not drawn)
→ 2%	3	10%	8%	-8	-2.2	.
COc1ccc(C(=O)Nc2nc3ccc4nc(C)sc4c3s2)cc1
→ 3%	-25	11%	13%	-9	2.9	?
CC(C)NC(=O)N(C)C[C@H]1Oc2cc(C#Cc3ccc(F)cc3)ccc2S(=O)(=O)N([C@H](C)CO)C[C@H]1C
→ ?	.	.	.	2	.	-9.4%
COc1ccc(/C=C2\N=C(c3ccc(C)cc3)OC2=O)cc1
→ 7%[15.4 µM]	4	17%	7%	8	-0.1	25µM*
O=C(c1cccc(S(=O)(=O)N2CCCCCC2)c1)N1CCN(c2ccccc2)CC1
→ -5%	6	-8%	-9%	-4	1.0	1.7%
Cc1cccc(N(CC(=O)N/N=C/c2ccc(OCC(=O)NCc3ccco3)cc2)S(C)(=O)=O)c1C
→ -16%	4	3%	-12%	1	3.6	-0.9%
CC1=NOC(=O)/C1=C/c1ccc(N(C)C)cc1
→ 22%	-3	4%	?	31	?	0.0%
CC(C)CC(CO)N1CCN(C(=O)c2ccc(Cl)cc2Cl)CCC1=O (stereo not drawn)
→ 2%	-11	16%	6%	-5	0.6	2.9%
Cc1cccc(-c2noc(CCC(=O)Nc3ccccc3)n2)c1
→ -28%	26	-6%	?	2	-0.5	0.4%
CCN(CC)C(=O)CSc1nnc(-c2ccc(S(=O)(=O)NCc3ccccc3Cl)cc2)o1
→ ?	-5	14%	2%	8	-2.5	?
O=C(COC(=O)Cc1c(Cl)cccc1Cl)NC1CCCC1
→ 2%	.	.	-2%	2	.	-0.4%
CCCOc1ccc(C2CC(=O)Nc3cc(OC)c(OC)cc32)cc1 (stereo not drawn)
→ -7%	2	5%	-14%	11	-6.5	-0.4%
COc1ccccc1NC(=O)c1ccc2snnc2c1
→ -6%	-6	-3%	-7%	-1	-0.3	.
COc1ccc(NC(=O)CN2C(=O)CSC2=O)cc1
→ -4%[15.4 µM]	-2	8%	15%	-1	-3.1	0.0%
O=P(O)(O)c1ccccc1OCCOCCOc1ccccc1P(=O)(O)O
→ -29%	6	-14%	6%	9	0.6	-0.4%
COC(=O)c1sccc1S(=O)(=O)N1CCCC(N(C)CCc2ccccn2)C1 (stereo not drawn)
→ 2%[15.4 µM]	11	8%	0%	4	.	-0.1%
Clc1ccc(OCc2nc(-c3ccncc3)no2)c(Cl)c1
→ -52%[inhibitor]	3	11%	-3%	21	-0.2	2.6%

By substructure: those above with an aryl methoxy group (eight)
Values run as follows: gsp ag	TRPV1 PAM	Sfp PPTase inh	gsp antag	TRPML1 inh	Menin-MLL FL inh	ClpP mod
COc1ccc(-c2[nH]ncc2CN(CCO)Cc2cccs2)c(F)c1
→ -6%[15.4 µM]	9	19%	9%	-4	-3.6	1.3%
COc1ccc(CC(=O)OCC(=O)Nc2ccc(Br)cc2)cc1
→ ?	-21	8%	3%	2	0.8	-1.0%
COc1ccccc1N(CC(=O)NCc1ccccc1)C(=O)CCC(=O)Nc1ccccn1
→ 0%	9	17%	-6%	-14	1.0	-1.5%
COc1ccc(C(=O)Nc2nc3ccc4nc(C)sc4c3s2)cc1
→ 3%	-25	11%	13%	-9	2.9	?
COc1ccc(/C=C2\N=C(c3ccc(C)cc3)OC2=O)cc1
→ 7%[15.4 µM]	4	17%	7%	8	-0.1	25µM*
CCCOc1ccc(C2CC(=O)Nc3cc(OC)c(OC)cc32)cc1 (stereo not drawn)
→ -7%	2	5%	-14%	11	-6.5	-0.4%
COc1ccccc1NC(=O)c1ccc2snnc2c1
→ -6%	-6	-3%	-7%	-1	-0.3	.
COc1ccc(NC(=O)CN2C(=O)CSC2=O)cc1
→ -4%[15.4 µM]	-2	8%	15%	-1	-3.1	0.0%
